Assay outcomes deposited in PubChem by Broad Institute.
Vaccinia inh: blocks a specific stage of Vaccinia orthopoxvirus infection; Vaccinia-infected cells, mCherry/Venus stage reporter fluorescence; active compounds read low; some inactives read as strong as hits; activity change (mCherry), % (no concentration beside the values); 89,000 tested, 0.01% active; AID 1053133;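 active = mCherry past -33% and 40 or more points under the early reporter, replicates agreeing; inconclusive = past -33% without that gap or agreement; tested in A549 cells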;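 also: scaled between vehicle wells and reference inhibitor wells; 23 nL library stock went into each well; one replicate is shown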
Vaccinia inh Venus: further read-out of Vaccinia inh, marked with its call; activity change (Venus), %; measured here: Venus reporter, other viral stage;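 negative = less Venus signal; first of two replicates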
* marks the source's active call; other numbers are inactive results; u = inconclusive; x = no result given. Only part of the results is shown (hit frequency here may not be typical).

SMILES	Vaccinia inh	Vaccinia inh Venus
CN1CCCCN2[C@H](C1)[C@@H](c1ccc(Br)cc1)[C@@H]2CO	24	3
N#Cc1ccc(-c2ccc([C@H]3[C@@H](CO)N4CCCCN(C(=O)Nc5ccc(F)cc5)C[C@H]34)cc2)cc1	u	x
C[C@H]1CN([C@@H](C)CO)C(=O)c2cccc(NS(=O)(=O)c3cccs3)c2O[C@@H]1CN(C)CC1CC1	18	13
COCC(=O)N(C)C[C@@H]1Oc2cc(-c3ccc(OC)cc3)ccc2S(=O)(=O)N([C@H](C)CO)C[C@@H]1C	13	6
COc1ccc(CN(C)C[C@@H]2OCCCC[C@H](C)Oc3ccc(NC(=O)Nc4ccc(C(F)(F)F)cc4)cc3C(=O)N([C@H](C)CO)C[C@@H]2C)cc1	u	x
C/C=C/c1ccc2c(c1)O[C@@H](CN(C)CCC)[C@@H](C)CN([C@@H](C)CO)S2(=O)=O	16	1
CC(C)NC(=O)N(C)C[C@@H]1Oc2ccc(N(C)C)cc2CC(=O)N([C@H](C)CO)C[C@@H]1C	16	6
CC(=O)N[C@H]1C=C[C@H](CC(=O)NCC2CCCCC2)O[C@H]1CO	13	13
Cc1noc(C)c1NC(=O)N(C)C[C@H]1Oc2ccc(NC(=O)NC(C)C)cc2CC(=O)N([C@H](C)CO)C[C@@H]1C	13	18
C[C@H](CO)N1C[C@H](C)[C@@H](CN(C)S(=O)(=O)c2ccccc2)Oc2ccc(NC(=O)CCN3CCOCC3)cc2CC1=O	29	24
C[C@@H]1CN([C@@H](C)CO)C(=O)c2cc(C#Cc3cccnc3)cnc2O[C@H]1CN(C)C(=O)CN(C)C	1	5
C[C@H](CO)N1C[C@H](C)[C@H](CN(C)CC2CC2)Oc2c(NS(=O)(=O)c3cccs3)cccc2C1=O	10	4
C[C@@H]1CN([C@@H](C)CO)C(=O)c2cc(-c3cccc(F)c3)cnc2O[C@@H]1CN(C)Cc1ccccc1	-10	-12
COc1ccccc1C#Cc1ccc([C@@H]2[C@@H](CO)N3CCCCN(C(=O)C4CCC4)C[C@@H]23)cc1	u	x
CO[C@H]1CN(C)C(=O)c2cc(NC(=O)c3cnccn3)ccc2OC[C@@H](C)N(C(C)=O)C[C@@H]1C	7	3
C[C@H](CO)N1C[C@H](C)[C@H](CN(C)C(=O)Nc2ccc3c(c2)OCO3)Oc2ncc(C#CC(C)(C)O)cc2C1=O	29	19
COc1ccccc1NC(=O)N1CC(=O)N2[C@H](CO)[C@H](c3ccc(C#CC(C)C)cc3)[C@H]2C1	-6	2
C[C@H]1CCCCO[C@@H](CN(C)Cc2ccc(C(=O)O)cc2)[C@@H](C)CN([C@@H](C)CO)C(=O)c2cc(NS(=O)(=O)c3cccs3)ccc2O1	18	10
COc1ccc(NC(=O)N(C)C[C@H]2Oc3ccc(NS(=O)(=O)c4ccc(Cl)cc4)cc3C(=O)N([C@@H](C)CO)C[C@@H]2C)cc1	3	1
C[C@@H]1CN([C@@H](C)CO)C(=O)c2cccc(NC(=O)C3CCOCC3)c2O[C@@H]1CN(C)S(=O)(=O)c1ccccc1	-7	-17

Single records, as listed above.
Record of C[C@H]1CN([C@@H](C)CO)C(=O)c2cccc(NS(=O)(=O)c3cccs3)c2O[C@@H]1CN(C)CC1CC1 : Vaccinia inh: 18; Vaccinia inh Venus: 13
Record of N#Cc1ccc(-c2ccc([C@H]3[C@@H](CO)N4CCCCN(C(=O)Nc5ccc(F)cc5)C[C@H]34)cc2)cc1 : Vaccinia inh: u; Vaccinia inh Venus: x

Following part:
SMILES	Vaccinia inh	Vaccinia inh Venus
O=C(C[C@@H]1CC[C@@H]2[C@H](COC[C@@H](O)CN2S(=O)(=O)c2ccc(F)cc2)O1)NCc1ccc(Cl)c(Cl)c1	u	x
C[C@H](CO)N1C[C@H](C)[C@H](CN(C)C(=O)Cc2ccccc2)Oc2cc(-c3cncnc3)ccc2S1(=O)=O	6	5
CN1CCN(C(=O)C[C@H]2CC[C@H]3[C@@H](COC[C@H](O)CN3CC3CC3)O2)CC1	3	2
CO[C@H](CN(C)S(=O)(=O)c1cccc(Cl)c1)[C@@H](C)CN([C@@H](C)CO)S(=O)(=O)c1cccc(Cl)c1	-31	-23
C[C@H]1CN([C@@H](C)CO)C(=O)Cc2cc(NC(=O)C3CC3)ccc2O[C@H]1CN(C)Cc1ccc(C(=O)Nc2ccccc2N)cc1	-15	-20
C[C@@H]1CN([C@@H](C)CO)C(=O)c2cc(NS(=O)(=O)c3ccc(F)cc3)ccc2O[C@H]1CN(C)S(=O)(=O)c1cccs1	26	17
O=C(C[C@H]1CC[C@@H](NC(=O)c2ccccn2)[C@@H](CO)O1)NCc1cc(F)cc(F)c1	-2	-9
CCC(=O)NC[C@@H]1[C@@H](c2ccccc2)[C@H](CO)N1C(=O)C1CC1	17	19
CC(C)NC(=O)Nc1cccc2c1O[C@@H](CN(C)Cc1ccc3c(c1)OCO3)[C@H](C)CN([C@H](C)CO)C2=O	13	4
C/C=C/c1cnc2c(c1)C(=O)N([C@H](C)CO)C[C@@H](C)[C@H](CN(C)Cc1cccc(C(=O)O)c1)O2	13	2

Taken from above:
O=C(C[C@H]1CC[C@@H](NC(=O)c2ccccn2)[C@@H](CO)O1)NCc1cc(F)cc(F)c1 in Vaccinia inh Venus is listed with -9
C[C@@H]1CN([C@@H](C)CO)C(=O)c2cc(NS(=O)(=O)c3ccc(F)cc3)ccc2O[C@H]1CN(C)S(=O)(=O)c1cccs1 in Vaccinia inh Venus is listed with 17
C[C@H](CO)N1C[C@H](C)[C@H](CN(C)C(=O)Cc2ccccc2)Oc2cc(-c3cncnc3)ccc2S1(=O)=O in Vaccinia inh Venus is listed with 5
CC(C)NC(=O)Nc1cccc2c1O[C@@H](CN(C)Cc1ccc3c(c1)OCO3)[C@H](C)CN([C@H](C)CO)C2=O in Vaccinia inh is listed with 13

More entries.
SMILES	Vaccinia inh	Vaccinia inh Venus
O=S(=O)(c1ccccc1F)N1CC[C@@H]2[C@@H](CO)Nc3ccc(-c4ccccc4)cc3[C@@H]21	u	x
O=C(NCc1nc2ccccc2[nH]1)C1=C[C@@H](C2CCCCC2)C[C@@H](OCc2ccc(CO)cc2)O1	u	x
C[C@@H]1CCCCO[C@H](CN(C)S(=O)(=O)c2ccccc2)[C@@H](C)CN([C@H](C)CO)C(=O)c2cc(NC(=O)Nc3ccc(C(F)(F)F)cc3)ccc2O1	-4	-10
COc1ccc(CN(C)C[C@H]2OCCCC[C@@H](C)Oc3ccc(NC(=O)Nc4ccc5c(c4)OCO5)cc3C(=O)N([C@@H](C)CO)C[C@@H]2C)cc1	u	x
C[C@@H]1CCCCO[C@@H](CN(C)S(C)(=O)=O)[C@@H](C)CN([C@@H](C)CO)C(=O)c2cc(NS(=O)(=O)c3ccccc3)ccc2O1	12	8
O=C(C[C@@H]1CC[C@@H]2[C@H](COC[C@@H](O)CN2C(=O)c2ccccc2F)O1)N1CCN(c2ccccc2)CC1	6	7
C[C@@H]1CN([C@@H](C)CO)C(=O)Cc2cc(NC(=O)CCC(F)(F)F)ccc2O[C@H]1CN(C)Cc1ccc(C(F)(F)F)cc1	u	x
CO[C@H]1CN(C)C(=O)c2cc(NC(C)=O)ccc2OC[C@H](C)N(C(=O)c2ccncc2)C[C@@H]1C	12	2
Cc1noc(C)c1S(=O)(=O)Nc1ccc2c(c1)C(=O)N([C@H](C)CO)C[C@H](C)[C@H](CN(C)Cc1ccc(Cl)c(Cl)c1)O2	-25	-7
COc1ccc(NC(=O)N(C)C[C@@H]2Oc3ccc(NC(=O)Nc4c(C)noc4C)cc3CC(=O)N([C@H](C)CO)C[C@@H]2C)cc1	15	8
C[C@@H]1CN([C@H](C)CO)C(=O)c2cc(C3=CCCCC3)cnc2O[C@H]1CN(C)S(=O)(=O)c1cn(C)cn1	19	11
O=C(Nc1ccc2c(c1)OCO2)N[C@@H]1CC[C@H](CCNC(=O)C2CCC2)O[C@@H]1CO	-8	11
C[C@@H]1CN([C@@H](C)CO)C(=O)c2cc(NS(C)(=O)=O)ccc2O[C@@H](C)CCCCO[C@H]1CN(C)S(=O)(=O)c1ccc(F)cc1	1	-2
C[C@@H]1CCCCO[C@H](CN(C)C(=O)Nc2ccc3c(c2)OCO3)[C@@H](C)CN([C@H](C)CO)C(=O)c2cc(NS(=O)(=O)c3cccs3)ccc2O1	32	14
C[C@H](CO)N1C[C@H](C)[C@H](CN(C)C(=O)Nc2ccccc2)Oc2ncc(C#CC(C)(C)O)cc2C1=O	14	6
CN1C(=O)c2cc(NC(=O)Cc3cccs3)ccc2OC[C@H]2O[C@@H](CC(=O)N[C@@H]3CCN(Cc4ccccc4)C3)CC[C@H]21	-12	-6
COC(=O)C[C@H]1C[C@H]2c3cc(NC(=O)NC4CCCC4)ccc3O[C@H]2[C@H](CO)O1	5	12
CCCN(C)C[C@@H]1OCCCC[C@@H](C)Oc2ccc(NC(=O)C3CCCCC3)cc2C(=O)N([C@H](C)CO)C[C@@H]1C	3	3
COc1ccc(NC(=O)Nc2cccc3c2O[C@H](CN(C)CC2CCCCC2)[C@@H](C)CN([C@H](C)CO)C3=O)cc1	-6	-2
C[C@@H]1CCCCO[C@H](CN(C)C(=O)Nc2ccc(F)cc2)[C@H](C)CN([C@@H](C)CO)C(=O)c2cc(NC(=O)C3CCCCC3)ccc2O1	-19	-11

Five entries out of the list, arranged by heavy-atom count, lowest first:
SMILES	Vaccinia inh	Vaccinia inh Venus
COC(=O)C[C@H]1C[C@H]2c3cc(NC(=O)NC4CCCC4)ccc3O[C@H]2[C@H](CO)O1	5	12
C[C@@H]1CN([C@H](C)CO)C(=O)c2cc(C3=CCCCC3)cnc2O[C@H]1CN(C)S(=O)(=O)c1cn(C)cn1	19	11
CCCN(C)C[C@@H]1OCCCC[C@@H](C)Oc2ccc(NC(=O)C3CCCCC3)cc2C(=O)N([C@H](C)CO)C[C@@H]1C	3	3
CN1C(=O)c2cc(NC(=O)Cc3cccs3)ccc2OC[C@H]2O[C@@H](CC(=O)N[C@@H]3CCN(Cc4ccccc4)C3)CC[C@H]21	-12	-6
C[C@@H]1CCCCO[C@H](CN(C)C(=O)Nc2ccc(F)cc2)[C@H](C)CN([C@@H](C)CO)C(=O)c2cc(NC(=O)C3CCCCC3)ccc2O1	-19	-11

Remaining list, next part:
SMILES	Vaccinia inh	Vaccinia inh Venus
CN1C(=O)c2cc(NS(=O)(=O)c3ccc(Cl)cc3)ccc2OC[C@H]2O[C@H](CC(=O)N3CCc4ccccc4C3)CC[C@H]21	-6	-4
Cn1cnc(CCNC(=O)C[C@@H]2CC[C@@H]3[C@H](COC[C@@H](O)CN3C(=O)C3CC3)O2)c1	5	12
COc1cccc(-c2ccc3c(c2)O[C@@H](CN(C)Cc2ccncc2)[C@H](C)CN([C@H](C)CO)S3(=O)=O)c1	u	x
O=C(C[C@@H]1CC[C@H]2[C@@H](COC[C@@H](O)CN2C(=O)c2ccccc2)O1)N1CCc2ccccc2C1	-3	0
C[C@H]1CN([C@@H](C)CO)C(=O)c2cc(-c3ccc(F)cc3)cnc2O[C@@H]1CN(C)CC1CCCCC1	u	x
CCC(=O)Nc1ccc2c(c1)C(=O)N(C)C[C@H](OC)[C@@H](C)CN(C(=O)c1ccc(F)cc1)[C@@H](C)CO2	-2	0
C[C@H]1CN([C@@H](C)CO)S(=O)(=O)c2ccc(-c3cccc(C(=O)N(C)C)c3)cc2O[C@@H]1CN(C)C(=O)Nc1ccccc1	3	0
CCCNC(=O)N1CC2(C1)CN(C(=O)c1cccnc1)[C@@H](CO)c1[nH]c3cc(OC)ccc3c12	13	15
COc1ccc(CN(C)C[C@H]2OCCCC[C@@H](C)Oc3ccc(NS(=O)(=O)c4ccccc4)cc3C(=O)N([C@@H](C)CO)C[C@H]2C)cc1	u	x
CN1C(=O)c2cc(NS(C)(=O)=O)ccc2OC[C@H]2O[C@H](CC(=O)NC3CCCCC3)CC[C@H]21	13	7
CO[C@H]1CN(C)C(=O)c2ccc(NS(=O)(=O)c3cn(C)cn3)cc2OC[C@@H](C)N(C)C[C@@H]1C	26	10
Cc1noc(C)c1NC(=O)Nc1ccc2c(c1)C(=O)N([C@@H](C)CO)C[C@@H](C)[C@@H](CN(C)S(=O)(=O)c1c(C)noc1C)OCCCC[C@@H](C)O2	23	13
COc1cccc(S(=O)(=O)N(C)C[C@H]2Oc3ncc(-c4cccc(C(=O)N(C)C)c4)cc3C(=O)N([C@H](C)CO)C[C@@H]2C)c1	-24	-23
CC(C)NC(=O)Nc1cccc2c1O[C@H](CN(C)Cc1ccccc1)[C@@H](C)CN([C@H](C)CO)C2=O	18	6
C[C@H](CO)N1C[C@H](C)[C@H](CN(C)Cc2ccc(C(F)(F)F)cc2)Oc2ccc(NC(=O)c3ccncc3)cc2CC1=O	-14	-7
COC(=O)C[C@H]1C[C@H]2c3cc(NC(=O)Nc4ccccc4)ccc3O[C@H]2[C@H](CO)O1	9	16
CN(C)C(=O)[C@@]1(Cc2ccccc2N=[N+]=[N-])N=C(c2ccc(OCCCO)cc2)O[C@H]1c1ccccc1	-21	-14
CCCNC(=O)N1C[C@H](C)[C@H](OC)CN(C)C(=O)c2ccc(NC(C)=O)cc2OC[C@@H]1C	-3	-1
C[C@@H]1CN([C@@H](C)CO)C(=O)c2cc(NC(=O)C3CCCCC3)ccc2O[C@H]1CN(C)Cc1ccncc1	17	5
CCCNC(=O)N1C[C@@H](C)[C@H](OC)CN(C)C(=O)c2cc(NC(=O)CC)ccc2OC[C@@H]1C	12	15
COc1ccc2c3c(n(C)c2c1)[C@@H](CO)N(Cc1ccccc1F)CC31CCN(C(=O)C2CCCC2)CC1	-34	-24
O=C(Nc1ccccc1F)N[C@@H]1CC[C@H](CC(=O)N2CCCCC2)O[C@H]1CO	4	6
C[C@@H]1CN([C@@H](C)CO)C(=O)c2cc(NC(=O)NC3CCCCC3)ccc2O[C@@H]1CN(C)S(=O)(=O)c1cn(C)cn1	14	9
CC(=O)N1[C@H](C(=O)NCC2CC2)[C@@H](CO)[C@@H]2Cn3c(ccc(-c4ccccc4F)c3=O)[C@@H]21	-8	7
O=C(C[C@@H]1C[C@H]2c3cc(NC(=O)c4ccc5c(c4)OCO5)ccc3O[C@H]2[C@@H](CO)O1)NC1CCCCC1	-23	-14
